Screening data deposited in PubChem by several laboratories.
RGS16-Gao HTS = regulators of human RGS16-Galphao interaction. 220,000 tested, 0.38% active. bead-based flow cytometry RGS16-Galphao binding, fluorescence; actives lie on both sides. AID 1441. binding response (% of control), % at 10 µM;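 active = below 25% or above 175%, edge rows of some plates excepted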;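 also: Galphao activated by GDP with aluminum fluoride before binding; 100% = wells without compound and 0% = beads without RGS; some results beyond the cut were filed as inactive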
Target sequence (O15492 whole entry, looked up): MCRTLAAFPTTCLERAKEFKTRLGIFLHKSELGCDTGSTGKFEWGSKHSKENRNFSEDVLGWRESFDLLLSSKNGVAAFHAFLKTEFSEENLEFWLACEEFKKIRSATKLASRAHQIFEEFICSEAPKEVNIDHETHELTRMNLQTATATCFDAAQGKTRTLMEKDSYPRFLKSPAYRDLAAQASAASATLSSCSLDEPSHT
Target sequence (P09471 whole entry, looked up): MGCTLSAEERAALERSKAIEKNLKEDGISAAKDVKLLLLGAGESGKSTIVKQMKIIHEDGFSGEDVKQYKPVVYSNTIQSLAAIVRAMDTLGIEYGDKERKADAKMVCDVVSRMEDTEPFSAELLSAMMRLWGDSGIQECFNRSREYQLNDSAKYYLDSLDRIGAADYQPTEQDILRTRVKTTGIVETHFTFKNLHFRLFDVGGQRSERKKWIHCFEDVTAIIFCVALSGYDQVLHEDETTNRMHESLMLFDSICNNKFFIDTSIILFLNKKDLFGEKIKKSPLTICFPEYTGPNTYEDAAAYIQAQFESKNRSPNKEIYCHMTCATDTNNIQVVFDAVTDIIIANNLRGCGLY
GALR2 agonist = agonists of human galanin receptor 2 (GALR2). O43603. 140,000 tested, 0.48% active. GALR2-expressing cells, agonist activation read-out. activation, %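 (tested at 5 µM)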;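 active = above mean plus 3 SD of all compounds, about 5% in these data, not always enough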;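 also: 0% = vehicle buffer wells and 100% = reference agonist at full effect; tested in CHO reporter cells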
Target sequence (O43603 whole entry, looked up): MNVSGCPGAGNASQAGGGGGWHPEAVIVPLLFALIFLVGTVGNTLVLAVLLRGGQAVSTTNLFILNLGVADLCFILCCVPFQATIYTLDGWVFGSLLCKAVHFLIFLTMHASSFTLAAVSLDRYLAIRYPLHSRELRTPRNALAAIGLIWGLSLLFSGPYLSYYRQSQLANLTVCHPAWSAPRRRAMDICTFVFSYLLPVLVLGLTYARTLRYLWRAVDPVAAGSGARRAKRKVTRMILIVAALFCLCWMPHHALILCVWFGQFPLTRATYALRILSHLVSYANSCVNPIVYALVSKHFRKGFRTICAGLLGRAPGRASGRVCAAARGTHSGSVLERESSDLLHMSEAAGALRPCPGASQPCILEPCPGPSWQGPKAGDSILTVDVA
PKD1 kinase inh = inhibitors of human PKD1 kinase | PKD1 kinase fluorescence polarization assay | 200,000 tested, 0.056% active | inhibition, %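 (about 10 µM by stock and volumes)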;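 active = inhibition of 50% or more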;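 also: controls were vehicle for no effect and a reference inhibitor for full effect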
HSV augment = HSV replication enhancement. maximum fold increase. 220,000 tested, 0.005% active. HSV replication augmentation in cells, fold increase. AID 1956;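 active = peak rise of 1.5-fold or more in the series; tested in PC3 cells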;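 also: first round at 10 µM; read as green reporter fluorescence; hits show the peak of a series up to 25 µM; 1 = signal of infected wells without compound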
INS promoter inh = TRM-6 insulin promoter activity inhibition; TRM-6 cells (human fetal islet line), insulin promoter-eGFP reporter, imaging; reporter expression induced with tamoxifen; AID 1273; inhibition, % at 2 µM; 130,000 tested, 0.9% active;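 active = inhibition above the mean plus 3 SD, with well images judged a real hit on visual review, cut at about 60% in these data, passing the limit was not always enough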
INS promoter inh cell count = also measured in INS promoter inh; calls as there; normalized cell count, %; measured here: cell count, toxicity; reference of the scale not given here;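 cells exposed to compound for 48 h; stained nuclei by imaging scaled within each plate; lower means fewer cells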
HSV augment primary fold = further read-out of HSV augment, marked with its call; fold increase; compound at 10 µM; measured here: primary screen fold increase 10 uM; tested in PC3 cells;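 GFP signal in the first replicate; 1 = infected wells without compound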
* marks the source's active call; other numbers are inactive results; i = inactive; nt = not tested or not shown.

smiles | RGS16-Gao HTS | INS promoter inh cell count | GALR2 agonist | PKD1 kinase inh | HSV augment primary fold | HSV augment | INS promoter inh
COC(=O)c1c(-c2c(Cl)cccc2Cl)noc1C(=O)NN | 95.7 | nt | nt | nt | 1.03 | i | nt
CCN(CC)S(=O)(=O)c1ccc(N2CCCC2)c(C(=O)OCC(=O)/C(C#N)=C(\C)N)c1 | 102.1 | 259.1 | -0.9 | -17.2 | 0.93 | i | -5.4
COc1ccc(CCN2CNc3c(c(=O)n(C)c(=O)n3C)C2)cc1OC | 100.1 | 93.2 | -2.1 | -2.4 | 0.997 | i | 3.0
O=C(/C=C/c1ccccc1)NCCc1nc2ccccc2[nH]1 | 97.7 | nt | nt | nt | 0.98 | i | nt
Nc1cc(N)nc(SCC(=O)N2CCN(S(=O)(=O)c3ccccc3)CC2)n1 | 99.2 | nt | nt | nt | 0.83 | i | nt
CCOc1ccc(Nc2cc(=O)oc3ccccc23)cc1 | 105.2 | 105.9 | -2.6 | -2.2 | 1.01 | i | -22.9
COc1ccc(-c2nnn(-c3cc(Cl)cc(Cl)c3)c2N)cc1 | 93.4 | nt | nt | nt | 0.79 | i | nt
COc1cc(O)c(C(CC(=O)N2CCCCC2)c2ccc3c(c2)OCO3)c(OC)c1 (centres undefined) | 99.8 | nt | nt | nt | 0.82 | i | nt
CCN(CC(=O)NCc1cccs1)S(=O)(=O)c1ccc(C(C)C)cc1 | 94.5 | 54.7 | -2.0 | 4.0 | 0.83 | i | -5.7
CNC(=O)NC(=O)COC(=O)CCCOc1ccc(OC)cc1 | 97.5 | nt | -2.1 | -12.9 | 0.91 | i | nt
COC(=O)c1sccc1NC(=S)N1CC(C)CC(C)C1 (centres undefined) | 99.9 | nt | -1.4 | -4.2 | 1.22 | i | nt
CCOC(=O)c1ccc(N=c2sc(C(=O)OC)cc(=O)n2Cc2ccc3c(c2)OCO3)cc1 | 96.8 | nt | -2.1 | 0.6 | 0.58 | i | nt
COc1ccc(CCC(=O)Nc2cc(Cl)ccc2OC)cc1 | 88.9 | 86.3 | -0.6 | 6.8 | 0.77 | i | 3.6
CCC(C(=O)NC1CCCCC1)N(CC1CCCO1)C(=O)CNS(=O)(=O)c1ccc(OC)cc1 (centres undefined) | 102.2 | nt | 0.0 | -1.2 | 1.01 | i | nt
COc1ccc(NC(=O)COC(=O)CNC(=O)c2cc(OC)c(OC)c(OC)c2)cc1 | 105.1 | 101.7 | -0.9 | -5.0 | 0.97 | i | 30.3
CCOC(=O)C1CCCN(C(=O)c2cc3c(C)nc4ccccc4c3o2)C1 (centres undefined) | 102.8 | 99.2 | 7.2 | -5.0 | 0.95 | i | -3.2
CCc1cccc(C)c1NC(=O)CC(C)(C)CC(=O)O | 103.2 | nt | nt | nt | 1.01 | i | nt
COn1c(-c2ccc(Cl)cc2)nc2ccc(Cl)cc21 | 103.6 | nt | -0.9 | -1.7 | 0.98 | i | nt
Cc1ccc(C)c(N2CC(=O)N(c3cc(C)ccc3C)CC2=O)c1 | 104.7 | 97.1 | -1.1 | -9.9 | 0.73 | i | 28.4
N/C(=N\OC(=O)COc1ccc([N+](=O)[O-])cc1)c1ccc(Br)cc1 | 93.7 | nt | nt | -3.5 | 0.96 | i | nt
COCCCNC(=O)CSc1nc2ccccc2c(=O)n1CCCC(=O)NCC1CCCO1 (centres undefined) | 105.6 | 116.2 | -0.3 | -7.3 | 0.9 | i | 11.1
COC(=O)c1cc2occc2n1Cc1c(F)cccc1Cl | 98.5 | nt | -0.4 | 10.4 | 1.15 | i | nt
c1ccc(-c2c(-c3ccccc3)n(Cc3ccco3)c3ncnc(NCCCn4ccnc4)c23)cc1 | 104.8 | 60.6 | 0.7 | -3.6 | 1.15 | i | -33.3
Cc1ccc(N=C2C(=S)N(c3ccc(C)cc3)C(=N)N2/N=C/c2ccc(Cl)cc2)cc1 | 98.4 | 109.3 | -1.9 | 3.3 | 0.72 | i | 14.3
O=C(CCn1nnc2ccccc21)Nc1nnc(Cc2ccccc2)s1 | 88.8 | 112.0 | -2.2 | 2.7 | nt | nt | -20.0
O=C(c1ccc(C(F)(F)F)cc1)C1CCCN(C(=O)CN2CCCC2=O)C1 (centres undefined) | 102.4 | nt | nt | 2.2 | 1.25 | i | nt
Fc1ccc(NC(=S)NCc2ccccn2)cc1 | 103.7 | 78.3 | -0.6 | -22.9 | 0.87 | i | 36.7
O=C(Cc1ccc([N+](=O)[O-])cc1)NCc1ccccc1Cl | 106.9 | 82.0 | -1.3 | 5.0 | 1.02 | i | -79.4
COc1cccc(C(=O)NNC(=O)c2sccc2-n2cccc2)c1 | 100.2 | nt | nt | 0.7 | 0.88 | i | nt
COc1cc(NC(=S)Nc2ccccn2)cc(OC)c1OC | 99.2 | nt | nt | -5.4 | 0.94 | i | nt

Sorted by number of heavy atoms (rising): some entries from above
smiles | RGS16-Gao HTS | INS promoter inh cell count | GALR2 agonist | PKD1 kinase inh | HSV augment primary fold | HSV augment | INS promoter inh
COc1cc(NC(=S)Nc2ccccn2)cc(OC)c1OC | 99.2 | nt | nt | -5.4 | 0.94 | i | nt
O=C(CCn1nnc2ccccc21)Nc1nnc(Cc2ccccc2)s1 | 88.8 | 112.0 | -2.2 | 2.7 | nt | nt | -20.0
O=C(c1ccc(C(F)(F)F)cc1)C1CCCN(C(=O)CN2CCCC2=O)C1 (centres undefined) | 102.4 | nt | nt | 2.2 | 1.25 | i | nt

Further entries:
smiles | RGS16-Gao HTS | INS promoter inh cell count | GALR2 agonist | PKD1 kinase inh | HSV augment primary fold | HSV augment | INS promoter inh
CCS(=O)(=O)c1ccc(O)c(NC(=O)c2cc(OC)c(OC)c(OC)c2)c1 | 93.2 | 115.7 | -2.2 | -2.5 | 0.89 | i | 0.0
CN(C)c1ccc(C2NCCS2)cc1 (centres undefined) | 21.1* | 108.5 | -0.7 | 0.4 | 0.83 | i | -28.6
O=C(COC(=O)c1nc(Cl)ccc1Cl)Nc1ccccc1OC(F)F | 102.8 | nt | nt | 3.1 | 1.07 | i | nt
O=C(c1ccccc1)c1ccc(OCC(O)CN2CCCCC2)cc1 (centres undefined) | 94.4 | 67.8 | -1.2 | 5.7 | 0.89 | i | -31.8
S=c1[nH]nc(Cc2sc(-c3ccccc3)nc2-c2ccccc2)o1 | 100.2 | 208.5 | -1.7 | 9.6 | nt | nt | 9.7
COc1ccc(-c2nc(CSCC(=O)NC3CCCc4ccccc43)c(C)o2)cc1OC (centres undefined) | 106.0 | 86.8 | -3.3 | -7.3 | 0.97 | i | -192.3
CC1Cc2ccccc2N1C(=O)Cn1cc([N+](=O)[O-])cn1 (centres undefined) | 104.2 | nt | 0.4 | 1.4 | 0.97 | i | nt
CC(=O)c1sc(-c2ccc(Cl)cc2)nc1C | 101.2 | 98.7 | nt | 1.5 | 1.02 | i | 40.0
Clc1ccc(-c2cnc3n2CCCCC3)cc1 | 102.7 | 94.0 | nt | -1.6 | 0.99 | i | -71.4
CCn1c(COc2ccc(OC)cc2)nnc1SCc1nc2ccccc2c(=O)[nH]1 | 106.7 | 155.4 | nt | 3.2 | 1.04 | i | 27.3
CCCN1CCN(C(=O)Cn2c(=O)oc3cc(S(=O)(=O)NCc4ccccc4)ccc32)CC1 | 99.1 | nt | -1.2 | 10.4 | 0.97 | i | nt
O=C(c1ccccc1Cl)N1CCC(c2nc3c(nnn3Cc3ccco3)c(=O)[nH]2)CC1 | 102.8 | nt | 0.4 | 1.0 | 0.99 | i | nt
CCc1ccc(N(C(=O)c2csnn2)C(C(=O)NCc2ccccc2)c2ccco2)cc1 (centres undefined) | 111.7 | 132.9 | -1.5 | -5.0 | 0.84 | i | -10.5
O=c1oc(-c2ccccc2NS(=O)(=O)c2ccc(Cl)cc2)nc2ccccc12 | 99.4 | nt | nt | nt | 1.09 | i | nt
CCOc1cccc(C(=O)NC(=S)Nc2ccc(Cl)cc2C(=O)O)c1 | 100.0 | nt | nt | -8.7 | 0.94 | i | nt
CC(NC(=O)c1ccccc1Cl)C(=O)O (centres undefined) | 101.5 | nt | -0.2 | -9.8 | 0.99 | i | nt
O=C(CNC1CCCCCC1)Nc1ccccc1N1CCCCC1 | 98.2 | 111.9 | -0.1 | 1.5 | 1 | i | 11.4
C#CCNC(=O)C1=C[C@H](c2csc3ccccc23)C[C@H](OCCCCO)O1 | 98.8 | nt | nt | 4.8 | 1.05 | i | nt
Cc1ccc(CNS(=O)(=O)c2cn(C)cn2)cc1 | 111.3 | 111.7 | -4.1 | -2.6 | 0.85 | i | -41.7
Cc1cc(C)c2c(=O)[nH]c(SCC(=O)N3CCCCC3)nc2n1 | 104.5 | 57.8 | -1.8 | -10.8 | 0.97 | i | -275.0
Cc1cccc(NC(=O)Cn2cccc2)c1 | 83.3 | nt | -0.9 | -11.6 | 0.98 | i | nt
S=C(Nc1ccccc1)c1nc2ccccc2s1 | 239.1 | 87.8 | -0.8 | 2.8 | 0.95 | i | -13.3
COCCCn1c(SCC(=O)N(C)C)nnc1-c1ccccc1 | 87.3 | 61.6 | -2.7 | -10.8 | 0.92 | i | -20.0
CCOc1ccc(S(=O)(=O)Nc2nc3ccccc3nc2-n2ccc(=NC(=O)c3cccs3)cc2)cc1 | 149.0 | 116.6 | -2.9 | 2.3 | 1.06 | i | 50.0
Cc1ccc([N+](=O)[O-])c2c1C(N1CC(C)OC(C)C1)C(C)(C)O2 (centres undefined) | 102.1 | nt | nt | -4.3 | 0.91 | i | nt
O=C(NC1C(=O)NNC1c1ccccc1)c1ccccc1 (centres undefined) | 75.5 | 52.8 | -1.0 | -6.0 | 1.03 | i | -28.6
Cc1ccnc(N/N=C/c2ccccc2)n1 | 105.0 | nt | -1.5 | -1.0 | 0.79 | i | nt
CNS(=O)(=O)c1cccc(C(=O)OC2CCCCC2=O)c1 (centres undefined) | 93.4 | 62.5 | -1.7 | -1.3 | 0.93 | i | 32.3
Cc1cc(C)n(-c2nc3ccccc3nc2N2CCN(C(=O)c3ccccc3)CC2)n1 | 136.4 | 35.1 | -1.8 | 4.6 | 0.83 | i | -400.0
COc1ccc(C(=O)Nc2ccncc2)cc1OC | 103.2 | 74.4 | -3.2 | -6.2 | 0.8 | i | 33.3

Entries of single compounds as entered above. Order of screens: RGS16-Gao HTS	INS promoter inh cell count	GALR2 agonist	PKD1 kinase inh	HSV augment primary fold	HSV augment	INS promoter inh
Entry for S=C(Nc1ccccc1)c1nc2ccccc2s1 = 239.1	87.8	-0.8	2.8	0.95	i	-13.3
Entry for COCCCn1c(SCC(=O)N(C)C)nnc1-c1ccccc1 = 87.3	61.6	-2.7	-10.8	0.92	i	-20.0

Entries listed so far printed as active in RGS16-Gao HTS:
molecule | RGS16-Gao HTS | GALR2 agonist | PKD1 kinase inh | HSV augment primary fold | HSV augment
CN(C)c1ccc(C2NCCS2)cc1 (centres undefined) | 21.1* | -0.7 | 0.4 | 0.83 | i

The results go on.
smiles | RGS16-Gao HTS | INS promoter inh cell count | GALR2 agonist | PKD1 kinase inh | HSV augment primary fold | HSV augment | INS promoter inh
CCN1C(=O)/C(=C/c2cccs2)N(C)C1=S | 101.0 | 112.5 | -2.8 | 0.3 | 0.99 | i | 7.1
CC(C)N(C(=O)NC(=O)Nc1ccc(S(=O)(=O)N2CCCC2)cc1)S(C)(=O)=O | 101.0 | nt | nt | -4.8 | 0.96 | i | nt
CC(=O)Oc1ccc(/C=N/NC(=O)CCSc2ccccc2)cc1 | 106.4 | nt | nt | -6.4 | 0.9 | i | nt
O=C(Nc1ccccc1N1CCOCC1)c1cccc(F)c1 | 105.5 | 115.1 | nt | -6.5 | nt | nt | -46.1
COc1ccc(C(=O)COC(=O)C(CCSC)NS(=O)(=O)c2ccc(Cl)cc2)cc1 (centres undefined) | 105.1 | 104.2 | -1.1 | -2.5 | 0.89 | i | 21.4
COc1ccc2cnn(Cc3ccccc3)c(=O)c2c1OC | 102.5 | nt | -1.7 | -4.1 | 0.92 | i | nt
CCOCCCNCc1ccc(OCc2ccccc2C)c(OC)c1 | 102.3 | nt | nt | 3.8 | 0.84 | i | nt
O=S(CC1CC1(Cl)Cl)CC1CC1(Cl)Cl (centres undefined) | 99.9 | 97.1 | -1.3 | 16.0 | 0.96 | i | 6.7
CC(=O)c1ccc(NC(=O)Nc2ccc([N+](=O)[O-])cc2)cc1 | 109.1 | 114.2 | -1.9 | 8.8 | 0.75 | i | 35.7
Cn1c(CNc2ccc(Cl)cc2)nnc1SCC#N | 77.3 | nt | nt | -1.2 | 0.84 | i | nt
O=[N+]([O-])c1ccc2nnn(O)c2c1 | 107.1 | 110.4 | -1.9 | -13.5 | 1.02 | i | 57.1
CCn1c(=NC(=O)CN2C(=O)CCC2=O)sc2c(OC)ccc(OC)c21 | 102.9 | nt | -0.1 | -1.7 | 0.77 | i | nt
COC(=O)c1ccc(NC(=O)CN(C)S(=O)(=O)c2ccc(OC)c(C)c2)cc1 | 104.7 | 40.8 | -1.4 | -0.8 | 1.12 | i | 13.5
